Vaccinia stage: Vaccinia orthopox stage-specific inhibition; 89,000 tested, 0.01% active; Vaccinia-infected cells, mCherry/Venus stage reporter fluorescence; stronger effect = lower value; some inactives read as strong as hits; activity change (mCherry), % (no concentration beside the values);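 active = mCherry past -33% and 40 or more points under the early reporter, replicates agreeing; inconclusive = past -33% without that gap or agreement; tested in A549 cells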;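 also: scaled between vehicle wells and reference inhibitor wells; 23 nL library stock went into each well; one replicate is shown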
Vaccinia stage Venus: recorded beside Vaccinia stage, whose call it bears; activity change (Venus), %; measured here: Venus reporter, other viral stage;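 negative = less Venus signal; first of two replicates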
Numbers without * were called inactive; ? = inconclusive; / = no result given; & = joins results of further samples. Not all compounds are listed. The share of hits here may be higher or lower than overall.

Every second line gives: Vaccinia stage | Vaccinia stage Venus
> C[C@@H]1CN([C@H](C)CO)C(=O)c2cc(NC(=O)c3ccncc3)ccc2O[C@@H]1CN(C)C(=O)Nc1ccccc1
    8 | 7
> CC=Cc1ccc2n(c1=O)C[C@H]1[C@H](CO)[C@@H](C(=O)NCCC)N(CC3CC3)[C@@H]21 (mixture of isomers)
    22 | 16
> Cc1ccc(S(=O)(=O)N(C)C[C@@H]2Oc3ccc(NC(=O)Nc4c(C)noc4C)cc3CC(=O)N([C@@H](C)CO)C[C@@H]2C)cc1
    14 | 4
> C[C@H]1CN([C@@H](C)CO)C(=O)c2cc(NC(=O)C3CC3)ccc2O[C@H]1CN(C)Cc1ccc(Cl)c(Cl)c1
    -29 | -21
> CCC(=O)N(C)C[C@H]1Oc2cc(-c3ccc(C)cc3)ccc2S(=O)(=O)N([C@H](C)CO)C[C@H]1C
    -6 | 0
> COc1ccc(S(=O)(=O)Nc2ccc3c(c2)CC(=O)N([C@H](C)CO)C[C@@H](C)[C@@H](CN(C)C(=O)NC(C)C)O3)cc1
    12 | 9
> CNC[C@H]1OCCCC[C@@H](C)Oc2ccc(N(C)C)cc2C(=O)N([C@H](C)CO)C[C@@H]1C
    15 | 12
> CCC(=O)N(C)C[C@@H]1Oc2cc(C#Cc3ccncc3)ccc2S(=O)(=O)N([C@@H](C)CO)C[C@H]1C
    -18 | 1
> O=C(c1ccccc1F)N1C[C@H]2[C@@H](c3ccccc31)[C@@H](CO)N2Cc1ccc2c(c1)OCO2
    -7 | -3
> C#CCN([C@H](/C=C/C1CC1)[C@@H](O)Cc1ccccc1)[C@@H](Cc1ccccc1)C(=O)OC
    10 | -2
> CC(C)NC(=O)N(C)C[C@H]1Oc2c(NC(=O)Nc3ccc(C(F)(F)F)cc3)cccc2C(=O)N([C@H](C)CO)C[C@@H]1C
    -31 | -23
> O=C(c1ccccc1F)N1CC(=O)N2[C@H](CO)[C@H](c3ccc(-c4ccc(F)cc4)cc3)[C@H]2C1
    2 | -26
> C[C@H](CO)N1C[C@H](C)[C@@H](CN(C)C(=O)CN(C)C)Oc2ncc(-c3ccccc3F)cc2C1=O
    19 | 4
> C[C@@H]1CN([C@@H](C)CO)C(=O)c2cc(NC(=O)c3ccncc3)ccc2O[C@H]1CN(C)C(=O)Nc1ccc(F)cc1
    11 | 2
> Cc1noc(C)c1S(=O)(=O)Nc1ccc2c(c1)C(=O)N([C@H](C)CO)C[C@@H](C)[C@H](CN(C)Cc1ccncc1)O2
    5 | 9

Part of the list above in order of number of heavy atoms, falling.
Every second line gives: Vaccinia stage | Vaccinia stage Venus
> Cc1ccc(S(=O)(=O)N(C)C[C@@H]2Oc3ccc(NC(=O)Nc4c(C)noc4C)cc3CC(=O)N([C@@H](C)CO)C[C@@H]2C)cc1
    14 | 4
> COc1ccc(S(=O)(=O)Nc2ccc3c(c2)CC(=O)N([C@H](C)CO)C[C@@H](C)[C@@H](CN(C)C(=O)NC(C)C)O3)cc1
    12 | 9
> Cc1noc(C)c1S(=O)(=O)Nc1ccc2c(c1)C(=O)N([C@H](C)CO)C[C@@H](C)[C@H](CN(C)Cc1ccncc1)O2
    5 | 9
> C[C@H]1CN([C@@H](C)CO)C(=O)c2cc(NC(=O)C3CC3)ccc2O[C@H]1CN(C)Cc1ccc(Cl)c(Cl)c1
    -29 | -21
> CNC[C@H]1OCCCC[C@@H](C)Oc2ccc(N(C)C)cc2C(=O)N([C@H](C)CO)C[C@@H]1C
    15 | 12
> CC=Cc1ccc2n(c1=O)C[C@H]1[C@H](CO)[C@@H](C(=O)NCCC)N(CC3CC3)[C@@H]21 (mixture of isomers)
    22 | 16

Individual results from above:
Entry for `O=C(c1ccccc1F)N1C[C@H]2[C@@H](c3ccccc31)[C@@H](CO)N2Cc1ccc2c(c1)OCO2` under Vaccinia stage Venus: -3
Entry for `CNC[C@H]1OCCCC[C@@H](C)Oc2ccc(N(C)C)cc2C(=O)N([C@H](C)CO)C[C@@H]1C` under Vaccinia stage: 15

Later entries:
Every second line gives: Vaccinia stage | Vaccinia stage Venus
> Cc1ccc(S(=O)(=O)Nc2ccc3c(c2)C(=O)N([C@@H](C)CO)C[C@@H](C)[C@H](CN(C)C(=O)c2ccccc2)OCCCC[C@H](C)O3)cc1
    -12 | -14
> C[C@H](CO)N1C[C@H](C)[C@H](CN(C)S(=O)(=O)c2cccc(C#N)c2)OCc2cn(nn2)CCCC1=O
    27 | 16
> O=C(C[C@H]1CC[C@H](NC(=O)CC2CC2)[C@@H](CO)O1)NCc1ccc(-c2ccccc2)cc1
    4 | 2
> Cc1noc(C)c1NC(=O)N(C)C[C@H]1Oc2ncc(C#CC(C)C)cc2C(=O)N([C@@H](C)CO)C[C@@H]1C
    5 | 0
> O=C(NC1Cc2ccccc2C1)[C@@H]1[C@@H](CO)[C@@H]2Cn3c(ccc(-c4ccccc4)c3=O)[C@H]1N2
    9 | 14
> CCC(=O)N[C@H]1CC[C@@H](CCn2cc(C3CC3)nn2)O[C@H]1CO
    5 | 11
> O=C(CN1CCOCC1)N1CCCCN2[C@@H](CO)[C@H](c3ccc(/C=C/c4ccccc4)cc3)[C@@H]2C1
    -13 | -12
> COc1ccc(-c2ccc([C@H]3[C@@H](CO)N4CCCCN(C(=O)Cc5ccccc5)C[C@@H]34)cc2)cc1
    -25 | -31
> C[C@H](CO)N1C[C@H](C)[C@@H](CN(C)S(C)(=O)=O)Oc2ccc(NC(=O)C3CCCCC3)cc2C1=O
    7 | 10
> O=C(Nc1cccc(Cl)c1)N[C@H]1CC[C@H](CCNC(=O)C2CC2)O[C@H]1CO
    7 | 3
> COc1ccc2c3c([nH]c2c1)[C@@H](CO)NCC31CCN(C(=O)c2ccccc2)CC1
    -1 | 2
> CC(=O)N[C@H]1CC[C@H](CCNC(=O)C2CCC2)O[C@@H]1CO
    -3 | -5
> O=C(C[C@H]1C=C[C@@H](NS(=O)(=O)c2ccc(F)cc2)[C@H](CO)O1)NCc1ccncn1
    1 | 1
> O=C(Cc1ccccn1)N1CC2(C1)[C@@H](c1ccccc1)[C@@H](CO)N2C(=O)c1ccncc1
    8 | 6
> CCN(C[C@@H]1N[C@H](CO)[C@H]1c1ccc(-c2cccc(C#N)c2)cc1)C(=O)COC
    11 | 11

Next part.
Every second line gives: Vaccinia stage | Vaccinia stage Venus
> N#C[C@@H]1[C@H](c2ccccc2-c2ccc(F)cc2)[C@@H](CO)N1c1ncc(-c2ccccc2)s1
    4 | 0
> C[C@H](CO)N1C[C@H](C)[C@@H](CN(C)C(=O)Nc2ccc(C(F)(F)F)cc2)Oc2cc(-c3ccncc3)ccc2S1(=O)=O
    -25 | -17
> C[C@@H]1CN([C@@H](C)CO)C(=O)Cc2cc(NC(=O)C3CC3)ccc2O[C@@H]1CN(C)C
    9 | -2
> C[C@@H]1CN([C@@H](C)CO)C(=O)c2cccc(NC(=O)C3CC3)c2O[C@H]1CN(C)Cc1ccc(-c2ccccc2)cc1
    -34 | -18
> C[C@@H]1CN([C@@H](C)CO)C(=O)c2cccc(NS(=O)(=O)c3cn(C)cn3)c2O[C@@H]1CN(C)C(=O)NC1CCCCC1
    7 | 3
> CN(C)CC(=O)N1CC2(C1)[C@H](c1ccccc1)[C@H](CO)N2Cc1ccccc1F
    -6 | -1
> CO[C@@H]1CN(C)C(=O)c2cc(NC(=O)NC3CCCCC3)ccc2OC[C@H](C)N(CCc2ccccc2)C[C@@H]1C
    -32 | -21
> CC(C)NC(=O)Nc1ccc2c(c1)C(=O)N([C@H](C)CO)C[C@H](C)[C@@H](CN(C)C(=O)NC1CCCCC1)OCCCC[C@H](C)O2
    17 | 13
> C[C@@H]1CN([C@H](C)CO)C(=O)Cc2cc(NC(=O)CCCN(C)C)ccc2O[C@H]1CN(C)S(=O)(=O)c1ccccc1
    15 | 15
> COc1ccc(NC(=O)N(C)C[C@@H]2OCCCC[C@@H](C)Oc3ccc(NS(=O)(=O)c4cn(C)cn4)cc3C(=O)N([C@H](C)CO)C[C@H]2C)cc1
    26 | 8
> O=C(O)C[C@@H]1C[C@@H]2c3cc(NC(=O)Nc4ccccc4F)ccc3O[C@@H]2[C@H](CO)O1
    -1 | -7
> C[C@H](CO)N1C[C@H](C)[C@@H](CN(C)C(=O)CC2CC2)Oc2cc(Br)ccc2S1(=O)=O
    6&1 | 4&-3
> N#C[C@@H]1[C@@H](c2ccccc2C2=CCCCC2)[C@@H](CO)N1C(=O)Cc1ccncc1
    -3 | 4
> C[C@@H]1CCCCO[C@@H](CN(C)Cc2ccc(C(=O)O)cc2)[C@@H](C)CN([C@@H](C)CO)C(=O)c2cc(NS(=O)(=O)c3cccs3)ccc2O1
    37 | 41
> C[C@@H]1CCCCO[C@H](CN(C)S(=O)(=O)c2cn(C)cn2)[C@H](C)CN([C@@H](C)CO)C(=O)c2cc(NC(=O)CCC(F)(F)F)ccc2O1
    10 | 4

(listing goes on)
Every second line gives: Vaccinia stage | Vaccinia stage Venus
> COc1cccc(S(=O)(=O)N[C@@H]2CC[C@@H](CC(=O)NCc3ccc(Cl)cc3)O[C@H]2CO)c1
    -5 | -4
> CNC[C@@H]1Oc2c(NS(=O)(=O)c3ccccc3)cccc2C(=O)N([C@@H](C)CO)C[C@H]1C
    18 | 8
> C[C@@H]1CN([C@H](C)CO)C(=O)c2cc(C#CCN(C)C)cnc2O[C@H]1CN(C)C(=O)NC1CCCC1
    14 | 8
> C[C@@H]1CCCCO[C@@H](CN(C)C(=O)c2ccccc2)[C@H](C)CN([C@@H](C)CO)C(=O)c2cc(NS(C)(=O)=O)ccc2O1
    -2 | -7
> CCCNC(=O)N(C)C[C@@H]1Oc2cc(C3=CCCCC3)ccc2S(=O)(=O)N([C@H](C)CO)C[C@H]1C
    -5 | -5
> CC(C)C(=O)Nc1ccc2c(c1)C(=O)N(C)[C@H]1CC[C@H](CC(=O)NCc3ccccc3)O[C@H]1CO2
    8 | 23
> COCC(=O)Nc1ccc2c(c1)OC[C@H](C)N(Cc1cccnc1)C[C@H](C)[C@H](OC)CN(C)C2=O
    2 | 3
> C[C@H]1CN([C@@H](C)CO)C(=O)c2cc(NS(=O)(=O)c3cn(C)cn3)ccc2O[C@H]1CN(C)C(=O)Nc1ccc2c(c1)OCO2
    8 | 2
> C[C@@H]1CN([C@@H](C)CO)C(=O)Cc2cc(N(C)C)ccc2O[C@H]1CN(C)C(=O)Nc1cccc2ccccc12
    3 | 0
> O=C(C[C@H]1C[C@@H]2c3cc(NC(=O)c4ccc5c(c4)OCO5)ccc3O[C@@H]2[C@@H](CO)O1)NCC(F)(F)F
    -6 | 3
> CCOC(=O)[C@H]1[C@@H]2C(=O)N3CCC[C@H]3[C@H](O[Si](C(C)C)(C(C)C)C(C)C)[C@H]2C=C2CCN(S(=O)(=O)c3ccc(C)cc3)C[C@H]21
    ? | /
> C[C@H]1CN([C@@H](C)CO)C(=O)Cc2cc(NC(=O)Cn3cnnn3)ccc2O[C@@H]1CN(C)Cc1ccc(Oc2ccccc2)cc1
    -4 | -1
> CC(=O)N(C)C[C@H]1Oc2ncc(-c3cncnc3)cc2C(=O)N([C@@H](C)CO)C[C@@H]1C
    13 | 1
> COCC(=O)N1[C@H](CO)[C@H](c2ccccc2-c2ccc(C)cc2)[C@@H]1C#N
    5 | 1
> O=C(C[C@H]1CC[C@H]2[C@@H](COC[C@@H](O)CN2C(=O)Nc2ccc(Cl)c(Cl)c2)O1)NCc1ccc(F)cc1
    ? | /

Going on with the list.
Every second line gives: Vaccinia stage | Vaccinia stage Venus
> COc1ccc(-c2ccc([C@H]3[C@H]4CN(C(=O)c5ccc(F)cc5)CCCCN4[C@H]3CO)cc2)cc1
    ? | /
> C[C@@H]1CN([C@H](C)CO)C(=O)c2cccc(NC(=O)C3CCCCC3)c2O[C@H]1CN(C)CC1CC1
    -20 | -9
> CCCNC(=O)C[C@H]1CC[C@H]2[C@@H](COC[C@@H](O)CN2CC2CCCCC2)O1
    13 | 15
> C[C@H]1CN([C@@H](C)CO)C(=O)CCCn2nncc2CO[C@@H]1CN(C)S(=O)(=O)c1ccc(Oc2ccccc2)nc1
    1 | 9
> COc1ccccc1NC(=O)N1CCCCN2[C@@H](CO)[C@@H](c3ccc(-c4ccc(C)cc4)cc3)[C@@H]2C1
    ? | /
> CCOC(=O)C1C2C=CC3(O2)C1C(=O)N(Cc1ccccc1)C3C(=O)NCc1ccccc1 (stereo not drawn)
    6 | 3
> COCC(=O)Nc1ccc2c(c1)[C@H]1C[C@@H](CC(=O)NCc3cccnc3)O[C@@H](CO)[C@H]1O2
    -13 | -18
> O=C(O)C[C@@H]1C=C[C@H](NC(=O)Nc2cc(F)ccc2F)[C@H](CO)O1
    20 | 15
> CN(C)CC#Cc1ccc([C@@H]2[C@H](CO)N3CCCCN(C(=O)C4CCCC4)C[C@@H]23)cc1
    8 | 3
> C[C@H]1CN([C@@H](C)CO)C(=O)CCCn2nncc2CO[C@H]1CN(C)Cc1ccc(O)cc1
    4 | 3
> CO[C@@H]1CN(C)C(=O)c2ccc(NC(C)=O)cc2OC[C@@H](C)N(C(=O)Cc2ccccn2)C[C@H]1C
    13 | 13
> C[C@@H]1CCCCO[C@H](CN(C)Cc2ccc(C(F)(F)F)cc2)[C@H](C)CN([C@@H](C)CO)C(=O)c2cc(NC(=O)c3ccccc3)ccc2O1
    ? | /
> O=C(Nc1ccc(Cl)cc1)N[C@@H]1CC[C@@H](CCn2cc(Cc3ccccc3)nn2)O[C@H]1CO
    -9 | -8
> C[C@H](CO)N1C[C@H](C)[C@H](CN(C)C)Oc2ccc(NC(=O)Cc3cn(C)c4ccccc34)cc2C1=O
    -9 | -6
> C[C@@H]1CN([C@H](C)CO)C(=O)c2cccc(NS(=O)(=O)c3cccs3)c2O[C@H]1CN(C)C(=O)Nc1cccc2ccccc12
    13 | 12
> COc1ccc2c3c([nH]c2c1)[C@H](CO)N(C(=O)Nc1ccc(F)cc1)CC31CN(C(=O)c2ccccc2F)C1
    -27 | -19
> O=C(C[C@@H]1CC[C@H]2[C@@H](COC[C@@H](O)CN2Cc2ccc(Oc3ccccc3)cc2)O1)Nc1nccs1
    ? | /
